Screening results from PubChem BioAssay.
MARV entry inh: qHTS for Inhibitors of binding or entry into cells for Marburg Virus. AID 720532, 2013. Marburg virus pseudotype entry/binding inhibition, cell-based; control for the full effect not named in the record; many of its hits are not listed in these tables. Potency, µM (series often up to 49.2 µM), without a hit: at the top dose activity change, negative = inhibition, actives largely listed as inhibitors. actives 6.5% (n = 18,000); active means well fitted inhibition curve with a large enough effect; inconclusive means small, poorly fitted or top-dose-only effect; inactive means no such curve, though single readings can be large or run the other way; tested in HEK293 cells; further: luciferase read-out
LASV entry inh: qHTS for Inhibitors of binding or entry into cells for Lassa Virus | Lassa virus pseudotyped entry inhibition, cell-based qHTS; control for the full effect not named in the record; many of its hits are not listed in these tables | Potency, µM (top dose mostly 49.2 µM), for inactives: top-dose activity change, negative = inhibition, actives largely listed as inhibitors | actives 4.1% (n = 18,000) | AID 720533, 2013; active = well fitted inhibition curve with a large enough effect; inconclusive = small, poorly fitted or top-dose-only effect; inactive = no such curve, though single readings can be large or run the other way; tested in HEK293 cells; further: luciferase read-out
* hit, by the source's call; & = joins results of further samples; [ ] = another dose, or the depositor's remark. On the % scale 0 is the no-effect control and ±100 the full control effect; potency means the concentration at half of the fitted maximal effect.

`COc1ccc(CN2CCCC(n3cc(C(=O)N4CCCCC4)nn3)C2)c(OC)c1OC` (stereo unspecified) gave MARV entry inh 10% and LASV entry inh -3%.
For Cc1oc(-c2ccccc2NC(=O)C2CCC2)nc1CNC(=O)c1cccc(C(F)(F)F)c1 the results were MARV entry inh -11% and LASV entry inh -24%.
Screening COc1cc2oc(=O)cc(CN(Cc3ccccc3)Cc3ccccc3)c2cc1Cl returned MARV entry inh -29% and LASV entry inh -22%.
`COc1ccc2c(c1)O[C@@H](c1ccc3c(c1)OCO3)[C@H](OC(=O)Nc1ccc(C)c(Br)c1)C2=O` gave MARV entry inh -23% and LASV entry inh -2%.
For CSCC[C@H](NC(=O)[C@H](Cc1c[nH]c2ccccc12)NC(=O)CCNC(=O)OC(C)(C)C)C(=O)N[C@@H](CC(=O)O)C(=O)N[C@@H](Cc1ccccc1)C(N)=O the results were MARV entry inh 1%&16% and LASV entry inh 3%&3%.
`O=S(=O)(c1cccc2cnccc12)N1CCNCC1` gave MARV entry inh -19% and LASV entry inh -4%.
For CC1(C)C[C@](C)(C(=O)c2ccccc2)C=C1c1ccccc1 the results were MARV entry inh -2% and LASV entry inh 4%.
Screening CN(C)c1ccc(-c2cc(NCc3ccccc3)ncn2)cc1 returned MARV entry inh 89%[activator] and LASV entry inh -4%.
COc1ccc(COC(=O)NN=C2C[C@@H](O)[C@@H](O)[C@@H]3[C@H]4C(=O)N(Cc5ccc6c(c5)OCO6)C(=O)[C@@H]4CC[C@H]23)cc1 was read as MARV entry inh 4%[8.59 µM].
For Nc1ccc(OCc2ccccc2)cc1 the results were MARV entry inh inconclusive and LASV entry inh inconclusive.
For O=C(O)[C@H]1CN(CCCP(=O)(O)O)CCN1 the results were MARV entry inh -26%&-8% and LASV entry inh 4%&-13%.
COc1ccc2c(c1)O[C@H](c1ccc3c(c1)OCO3)[C@@H](OC(=O)NCc1ccco1)C2=O was read as MARV entry inh 35%[activator] and LASV entry inh -23%.

Taken from the entries so far (8 entries):
For CSCC[C@H](NC(=O)[C@H](Cc1c[nH]c2ccccc12)NC(=O)CCNC(=O)OC(C)(C)C)C(=O)N[C@@H](CC(=O)O)C(=O)N[C@@H](Cc1ccccc1)C(N)=O the results were MARV entry inh 1%&16% and LASV entry inh 3%&3%.
`O=S(=O)(c1cccc2cnccc12)N1CCNCC1` gave MARV entry inh -19% and LASV entry inh -4%.
For CC1(C)C[C@](C)(C(=O)c2ccccc2)C=C1c1ccccc1 the results were MARV entry inh -2% and LASV entry inh 4%.
Screening CN(C)c1ccc(-c2cc(NCc3ccccc3)ncn2)cc1 returned MARV entry inh 89%[activator] and LASV entry inh -4%.
COc1ccc(COC(=O)NN=C2C[C@@H](O)[C@@H](O)[C@@H]3[C@H]4C(=O)N(Cc5ccc6c(c5)OCO6)C(=O)[C@@H]4CC[C@H]23)cc1 was read as MARV entry inh 4%[8.59 µM].
For Nc1ccc(OCc2ccccc2)cc1 the results were MARV entry inh inconclusive and LASV entry inh inconclusive.
For O=C(O)[C@H]1CN(CCCP(=O)(O)O)CCN1 the results were MARV entry inh -26%&-8% and LASV entry inh 4%&-13%.
COc1ccc2c(c1)O[C@H](c1ccc3c(c1)OCO3)[C@@H](OC(=O)NCc1ccco1)C2=O was read as MARV entry inh 35%[activator] and LASV entry inh -23%.

(next part)
O=C1Nc2ccccc2[C@@]12O[C@H](COc1ccccc1)CC1=C2CCC1 was read as MARV entry inh 10%[8.59 µM] and LASV entry inh 12%[8.59 µM].
Screening CCOC(=O)C1=C(C)c2ccccc2OC1(C(=O)OCC)c1ccccc1 (stereo unspecified) returned MARV entry inh inconclusive and LASV entry inh inconclusive.
`O=C(O)C1CC[C@@](C(=O)O)(c2ccccc2)c2ccccc21` (stereo partly specified) gave MARV entry inh -15% and LASV entry inh -12%.
For O=S1(=O)CC(N2CCN(CC3CC3)CC2)CN1C1CCCC1 (stereo unspecified) the results were MARV entry inh 6% and LASV entry inh -16%.
Screening COCCN1CCN(C(=O)c2cnn(-c3nccc(-c4cc5ccccc5o4)n3)c2C2CC2)CC1 returned MARV entry inh 4% and LASV entry inh -28%.
For Cc1cc(C)n(-c2ccc(C(=O)N3CCc4c(cnc(C)c4CNC(=O)c4ccccc4F)C3)cc2)n1 the results were MARV entry inh inconclusive and LASV entry inh 20%.
For COc1ccc(-c2cnnc(CCCn3ccnc3-c3ccccc3)n2)cc1 the results were MARV entry inh inconclusive and LASV entry inh -22%[8.59 µM].
CO[C@]1(C)C[C@H]2O[C@]1(C)n1c3ccccc3c3c4c(c5c6ccccc6n2c5c31)C(=O)N(C)C4 was read as MARV entry inh 0% and LASV entry inh -5%.
CC(C)C[C@H](NC(=O)[C@H](CCCCN)NC(=O)CNC(=O)[C@H](CC(C)C)NC(=O)[C@@H](N)C(C)C)C(=O)N[C@@H](CO)C(=O)N[C@@H](CCC(N)=O)C(=O)N[C@@H](CCC(=O)O)C(=O)N[C@@H](CC(C)C)C(=O)N[C@@H](Cc1cnc[nH]1)C(=O)N[C@@H](CCCCN)C(=O)N[C@@H](CC(C)C)C(=O)N[C@@H](CCC(N)=O)C(=O)N[C@H](C(=O)N[C@@H](Cc1ccc(O)cc1)C(=O)N1CCC[C@H]1C(=O)N[C@@H](CCCNC(=N)N)C(=O)N[C@H](C(=O)N[C@@H](CC(N)=O)C(=O)N[C@H](C(=O)NCC(=O)N[C@@H](CO)C(=O)NCC(=O)N[C@H](C(=O)N1CCC[C@H]1C(N)=O)[C@@H](C)O)[C@@H](C)O)[C@@H](C)O)[C@@H](C)O was read as MARV entry inh 10% and LASV entry inh -3%.
C[C@@H]1O[C@H](C[N+](C)(C)C)C[C@@H]1O was read as MARV entry inh 11% and LASV entry inh -10%.
O=C1NC(=O)C(N2CCc3ccccc32)=C1c1ccc(Cl)cc1 was read as MARV entry inh inconclusive and LASV entry inh -18%.
CC1=C[C@H]2c3ccccc3C[C@H]2CO[C@]12C(=O)N(Cc1ccc(Br)cc1)c1ccccc12 was read as MARV entry inh inconclusive and LASV entry inh 17%[8.59 µM].
For CCCCC1=CC2=C(c3ccco3)C(=O)C(C)(OC(=O)c3ccc(OC)cc3)C(=O)C2=CN1CC1CC1 (stereo unspecified) the results were MARV entry inh inconclusive and LASV entry inh 1%[8.59 µM].
`CC(/C=C/C=C(\C)C(=O)O[C@@H]1O[C@H](CO[C@@H]2O[C@H](CO)[C@@H](O)[C@H](O)[C@H]2O)[C@@H](O)[C@H](O)[C@H]1O)=C\C=C\C=C(C)\C=C\C=C(/C)C(=O)O[C@@H]1O[C@H](CO[C@@H]2O[C@H](CO)[C@@H](O)[C@H](O)[C@H]2O)[C@@H](O)[C@H](O)[C@H]1O` gave MARV entry inh -11% and LASV entry inh -1%.
C=C(C)C(O)C=Cc1ccc(Br)cc1 (stereo unspecified) was read as MARV entry inh inconclusive and LASV entry inh 35%[activator][8.59 µM].
`COc1cc(=O)n2c(c1C(=O)NC(C)c1ccco1)CCN(Cc1cc(C)ccc1C)CC2` (stereo unspecified) gave MARV entry inh inconclusive and LASV entry inh -2%.
CC(=O)[C@@H]1[C@@H](C)N(Cc2ccccc2)C(=O)N[C@H]1c1cccc(C(F)(F)F)c1 was read as MARV entry inh inconclusive and LASV entry inh -17%[8.59 µM].
Screening N[C@H](Cc1ccc(O)cc1)C(=O)O returned MARV entry inh 9%&-22% and LASV entry inh 6%&-1%.
`CC(C)(C)OC(=O)NCCCC1=CC2=CC(=O)C(C)(OC(=O)CCc3ccccc3)C(=O)C2=CO1` (stereo unspecified) gave MARV entry inh inconclusive and LASV entry inh -7%&1%.
For O=C1CCCC=C1[C@@H](O)CCOC(c1ccccc1)(c1ccccc1)c1ccccc1 the results were MARV entry inh -6% and LASV entry inh -13%.
`C=C(COC)C1=CCC(C(=O)OC)(C(=O)OC)[C@@H](C[N+](=O)[O-])c2ccccc21` gave MARV entry inh -14% and LASV entry inh -1%.
Screening CC(=O)c1ccc(-c2cccc([C@H]3[C@@H]4C=CC[C@@H](C)[C@@H]4C(=O)N3Cc3ccccc3)c2)cc1 returned MARV entry inh inconclusive and LASV entry inh inconclusive.
N[C@@H](Cn1c2c(c(=O)[nH]c1=O)CCC2)C(=O)O was read as MARV entry inh -15% and LASV entry inh -1%.
CC(=O)OCC(OC(C)=O)C(OC(C)=O)C(OC(C)=O)C(OC(C)=O)C(COC(C)=O)OC(C)=O (stereo unspecified) was read as MARV entry inh 29% and LASV entry inh 5%.
COC(=O)N1c2ccccc2C23[C@@H]4CN5CCC[C@]6(CCC12C(O)(C6)C4=O)[C@H]53 was read as MARV entry inh -9% and LASV entry inh 0%.
`CC(C)(C)C(=O)NCCCC(=O)O` gave MARV entry inh -2% and LASV entry inh -9%.
CCCNC(=O)OC[C@H]1O[C@H](CCON=C(C)CCC(=O)OC[C@H]2O[C@H](C#Cc3ccccc3)C=C[C@H]2Oc2ccc(C)cc2)C=C[C@H]1Oc1ccc(OC)cc1 was read as MARV entry inh -29%[8.59 µM] and LASV entry inh 4%[8.59 µM].
For CCCCC/C=C\C/C=C\C/C=C\C/C=C\CCCC(=O)NCCc1ccc(O)c(O)c1 the results were MARV entry inh inconclusive and LASV entry inh inconclusive.
COC(=O)CCCC1=CC2=C(c3ccccc3)C(=O)C(C)(OC(=O)C3CCCC3)C(=O)C2=CN1CCCCO (stereo unspecified) was read as MARV entry inh inconclusive and LASV entry inh -22%[8.59 µM].
Screening OCC(O)COc1ccc(Cl)cc1 (stereo unspecified) returned MARV entry inh 18% and LASV entry inh -4%.
`O=C(OCc1ccccc1)[C@@H]1COC(c2ccc(Br)cc2)=N1` gave MARV entry inh 40%[activator] and LASV entry inh 21%.
For CCOC(=O)Nc1ccc2c(c1)N(C(=O)CN(C)C)c1ccccc1CC2 the results were MARV entry inh 40µM* and LASV entry inh inconclusive.
NCCc1ccccc1 was read as MARV entry inh 13% and LASV entry inh 19%.
Screening O=C(OCc1cn([C@@H]2C[C@H](c3ccc(Cl)cc3)N(Cc3cccs3)C[C@@H]2O)nn1)c1ccccc1 returned MARV entry inh -25%.
Screening CCN1C(=O)NC(c2ccc(Br)cc2)C(C(C)=O)=C1C (stereo unspecified) returned MARV entry inh inconclusive.
`O=S1(=O)N[C@@H](Cc2ccccc2)COc2c(Cl)cccc21` gave MARV entry inh 4% and LASV entry inh 8%.
Screening Nc1c[n+](N2CCOCC2)no1 returned MARV entry inh 2% and LASV entry inh -2%.
For CCOC(=O)C(CCc1ccccc1)NC(C)C(=O)N1C(C(=O)O)CC2CCCC21 (stereo unspecified) the results were MARV entry inh 8% and LASV entry inh 0%.
`CCOC(=O)c1c(C)cc(OC)cc1O` gave MARV entry inh 3% and LASV entry inh -8%.
Screening CC(=O)c1ccc(F)c(-c2cc(C)cc3c2OC(CNC(=O)c2csc(C)n2)C3)c1 (stereo unspecified) returned MARV entry inh inconclusive and LASV entry inh inconclusive.
Screening O=C(O)c1ccc(OCCCOc2ccc(C(=O)O)cc2)cc1 returned MARV entry inh 8%&17% and LASV entry inh 4%&-9%.
`Cc1ncc2n1-c1ccc(Cl)cc1C(c1ccccc1F)=NC2` gave MARV entry inh 22% and LASV entry inh -23%.
Screening Cc1noc(C)c1S(=O)(=O)Nc1ccc(O)c2c(=O)cc(-c3ccccc3Cl)oc12 returned MARV entry inh 23% and LASV entry inh 42%[activator].
For C=C(C)C1(O)OC(=O)C=C1OC (stereo unspecified) the results were MARV entry inh -25% and LASV entry inh 5%.
Screening CCCCCCCCCCCCCCCC(=O)NCCCC(=O)O returned MARV entry inh -9% and LASV entry inh -2%.
COc1ccccc1CCc1nc2ccccc2n1C1CCN(C(=O)c2cc(C)nn2C)CC1 was read as MARV entry inh 0% and LASV entry inh -12%.
CCC1CN(CC(=O)NC(C)c2cn(C)nc2C)Cc2cc(OC)ccc2O1 (stereo unspecified) was read as MARV entry inh -4% and LASV entry inh -13%.
For Cc1ccc(C(=O)OC[C@H]2O[C@H](Cl)C[C@@H]2OC(=O)c2ccc(C)cc2)cc1 the results were MARV entry inh 8% and LASV entry inh -12%.
`COC(=O)[C@]1(C)C=C[C@@H](C)[C@H](c2ccccc2Br)N1C(=O)C(F)(F)F` gave MARV entry inh -15%[8.59 µM].
Screening Cc1cnc(C)c(-c2cc(F)cc3c2OC(CNC(=O)C2CCOC2)C3)n1 (stereo unspecified) returned MARV entry inh -16% and LASV entry inh -7%.
`C#C[C@]1(O)CC[C@H]2[C@@H]3CCC4=CC(=O)CC[C@@H]4[C@H]3C(=C)C[C@@]21CC` gave MARV entry inh 8% and LASV entry inh -20%.
`CC[C@H]1OC(=O)[C@H](C)[C@@H](O[C@H]2C[C@@](C)(OC)[C@@H](O)[C@H](C)O2)[C@H](C)[C@@H](O[C@@H]2O[C@H](C)C[C@H](N(C)C)[C@H]2O)[C@](C)(O)C[C@@H](C)C(=O)[C@H](C)[C@@H](O)[C@]1(C)O` gave MARV entry inh inconclusive and LASV entry inh -12%&-15%.
COc1ccc(/C=C/C(=O)NCC2Cc3cc(Cl)cc(-c4ncccn4)c3O2)cc1 (stereo unspecified) was read as MARV entry inh 4% and LASV entry inh -8%.
`COc1ccc(C=O)c(OCc2cn(CC(=O)c3ccc(O)cc3)nn2)c1` gave MARV entry inh 21% and LASV entry inh -5%.
Screening COc1ccc(C2=N[C@@H](C(C)C)CO2)cc1 returned MARV entry inh 29%[107 µM] and LASV entry inh 13%[107 µM].
`CCCCC[C@H](O)/C=C/[C@@H]1[C@@H](CCCCCCC(=O)O)[C@@H](O)C[C@H]1O` gave MARV entry inh 3%&26% and LASV entry inh 4%&-12%.
